# Source: PubChem BioAssay (Broad Institute)
# rRNA inh HTS – reduced GFP signal of wild-type E. coli, primary screen, bacterial rRNA inhibitor project, GFP/RFP fluorescence, OD600, single point. E. coli WT GFP vs humanized-ribosome RFP mutants, 24 h; stronger effect = lower value; DMSO median 0, no signal -100. GFP signal change (wild-type ribosome), % (concentration not given with the values). 350,000 tested, 1.6% active;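 active = significant combined selectivity score with lowered wild-type GFP, culture density cut under 30%, mutant RFP and density less affected; inactive = any of these conditions unmet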; note: one replicate is shown; some compounds called inactive have numbers as strong as hits
# AF4-AF9 inh – inhibitors of AF4 peptide binding to AF9, primary screen, biochemical, AlphaScreen, biotin-AF4 peptide, FLAG-AF9, single point; Protein AF-9 (Homo sapiens), P42568; inhibition, % at 10 µM; 350,000 tested, 0.47% active; AID 651704, 2012;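 active = every replicate reaching a set inhibition limit, whatever the replicate mean, cut at about 25% in these data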;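 note: 0% = plate neutral control median and 100% = total signal loss; the record names both 10 and 1 µM as test concentration; the first replicate is given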
# Target sequence (P42568 whole entry, looked up): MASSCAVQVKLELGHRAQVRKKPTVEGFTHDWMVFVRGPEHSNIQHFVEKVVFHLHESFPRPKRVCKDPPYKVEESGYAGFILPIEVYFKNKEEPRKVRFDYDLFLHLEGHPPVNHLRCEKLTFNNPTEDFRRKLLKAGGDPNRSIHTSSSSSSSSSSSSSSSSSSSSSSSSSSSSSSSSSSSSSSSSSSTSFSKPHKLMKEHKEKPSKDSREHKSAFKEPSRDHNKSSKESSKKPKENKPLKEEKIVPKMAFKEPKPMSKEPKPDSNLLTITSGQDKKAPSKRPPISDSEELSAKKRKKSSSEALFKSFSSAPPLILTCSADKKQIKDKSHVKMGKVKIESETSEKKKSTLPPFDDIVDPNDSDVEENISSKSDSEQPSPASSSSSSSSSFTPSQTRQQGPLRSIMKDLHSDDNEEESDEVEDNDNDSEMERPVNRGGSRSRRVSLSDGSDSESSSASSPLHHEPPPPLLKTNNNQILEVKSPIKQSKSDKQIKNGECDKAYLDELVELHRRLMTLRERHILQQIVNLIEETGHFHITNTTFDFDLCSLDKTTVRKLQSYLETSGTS
# FGF22 binding – binders of human FGF22 protein, primary screen, FGF22 synaptogenesis inhibitor project, biophysical, thermal shift, single point; 340,000 tested, 1.5% active; calls only at 9.99 µM; recombinant FGF22 thermal shift, SYPRO orange fluorescence; percent of sucrose octasulfate shift, DMSO zero; AID 651658, 2012;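 active = melting point raised past a set limit in the mean and every replicate; three in four hits are not shown here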
# Target sequence (Q9HCT0 whole entry, looked up): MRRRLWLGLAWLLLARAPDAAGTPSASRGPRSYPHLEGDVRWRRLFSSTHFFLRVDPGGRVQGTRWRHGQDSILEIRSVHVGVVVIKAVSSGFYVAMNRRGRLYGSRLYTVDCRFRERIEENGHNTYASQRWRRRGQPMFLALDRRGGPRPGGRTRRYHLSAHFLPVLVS
# rRNA inh HTS OD600 – also measured in rRNA inh HTS; calls as there; OD600 change, %; measured here: OD600 growth;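 optical density of the mix in the first replicate; 0 = DMSO median and -100 = no signal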
# rRNA inh HTS RFP – further read-out of rRNA inh HTS, marked with its call; RFP signal change, %; measured here: RFP humanized mutant strains;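 first replicate; 0 = DMSO median and -100 = no signal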
# The depositor's hits bear a star; i = inactive; & = joins results of further samples.
no.	SMILES	FGF22 binding	rRNA inh HTS RFP	rRNA inh HTS	AF4-AF9 inh	rRNA inh HTS OD600
1	C[C@@H]1CN([C@@H](C)CO)C(=O)c2cc(NS(=O)(=O)c3cccs3)ccc2O[C@@H]1CN(C)Cc1ccc(C(F)(F)F)cc1	i	13.8	-32.2	4.0	-66.0
2	CO[C@H]1CN(C)C(=O)c2cc(NC(C)=O)ccc2OC[C@H](C)N(C(=O)CN2CCOCC2)C[C@@H]1C	i	-0.2	1.5	1.1	-2.2
3	COc1ccc(C(C(=O)NC(C)(C)C)N(C[C@H]2CC[C@@H]([C@@H]3CC[C@H](CO)O3)O2)C(=O)c2ccccc2)cc1 (stereo not given in full)	i	1.7	7.0	2.5	8.4
4	COc1ccc(C#Cc2ccc3c(c2)O[C@H](CN(C)C(=O)NC2CCCCC2)[C@@H](C)CN([C@@H](C)CO)S3(=O)=O)cc1	i	-2.3	1.4	-11.5	9.4
5	C[C@@H]1CN([C@@H](C)CO)C(=O)CCCn2nncc2CO[C@H]1CN(C)C(=O)c1ccc(N2CCN(C)CC2)cc1	i	0.7	0.1	-0.5&-3.1&2.6	8.1
6	CC(=O)NC[C@@H]1[C@@H](c2ccccc2)[C@H](CO)N1C(=O)Cc1cccnc1	i	-2.8	2.1	-0.1	9.0
7	C[C@@H]1COc2cccc(N3CCCC3)c2S(=O)(=O)N1	i	2.8	6.2	-0.5	7.6
8	O=C(NCCc1ccccc1)c1ccccc1C(F)(F)F	i	-0.5	1.8	-2.6	6.0
9	CNC(=O)C[C@H]1CC[C@H]2[C@@H](COc3ccc(NC(=O)NC4CCCC4)cc3C(=O)N2C)O1	i	0.1	1.3	-0.4	0.2
10	O=C(COC(=O)Cc1ccsc1)Nc1ccc(F)cc1Cl	i	-0.3	13.1	-0.9	14.8
11	O=C(C[C@H]1CC[C@@H]2[C@H](COC[C@H](O)CN2C(=O)Nc2ccc(Cl)cc2)O1)NCCc1ccncc1	i	-7.7	-46.8	-1.6	-49.7
12	O=C(O)c1cccc(S(=O)(=O)Nc2ccccc2Oc2ccccc2)c1	i	10.6	3.6	0.9	12.5
13	Cc1noc(C)c1S(=O)(=O)Nc1ccc2c(c1)C(=O)N([C@@H](C)CO)C[C@H](C)[C@@H](CN(C)S(=O)(=O)c1ccccc1)OCCCC[C@H](C)O2	i	1.7	-4.9	1.3	-14.1
14	CN(C(=O)c1ccc(NC(=O)Cc2cccc(NC(=O)C3CCCN(C(=O)C4CCC4)C3)c2)cc1)C1CC1 (stereo not given)	i	-1.0	8.6	1.1	1.0
15	COc1ccc(S(=O)(=O)Nc2ccc3c(c2)CC(=O)N([C@H](C)CO)C[C@H](C)[C@H](CN(C)C(=O)NC2CCCCC2)O3)cc1	i	1.9	6.6	-1.4	3.5
16	CCCNC(=O)N1[C@H](CN(C)C(C)=O)[C@@H](c2ccc(C3=CCCC3)cc2)[C@@H]1CO	i	-0.3	-0.6	-2.4	-0.5
17	O=C(Nc1ccn(CCCNCc2ccccn2)c(=O)n1)OCc1ccccc1	i	-2.4	6.9	0.8	9.2
18	COc1ccc(S(=O)(=O)N(C)C[C@H]2Oc3ccc(NS(=O)(=O)c4cn(C)cn4)cc3CC(=O)N([C@H](C)CO)C[C@@H]2C)cc1	i	0.6	1.5	-0.5	8.8
19	CC(C)(C)[S@@](=O)N1Cc2cc(C(=O)N3CCCCC3)nc(-c3cccc(-c4cccc(C#N)c4)c3)c2[C@H]1CCO	i	4.1	-1.0	-0.2	-1.5
20	CS(=O)(=O)N1[C@H](C#N)[C@H](c2ccc(C#Cc3cccc(F)c3)cc2)[C@H]1CO	i	-9.4	-55.5	-4.1	-76.0
21	C[C@H]1CN([C@@H](C)CO)C(=O)c2cc(NC(=O)CCN3CCOCC3)ccc2O[C@@H]1CN(C)CC1CCCCC1	i	-0.3	2.0	0.8	5.7
22	C[C@@H]1CN([C@H](C)CO)C(=O)c2cc(NS(=O)(=O)c3ccc(F)cc3)ccc2O[C@@H](C)CCCCO[C@@H]1CN(C)C(=O)c1ccccc1	i	-0.2	1.8	-1.5	-3.1
23	CCC(=O)N[C@@H]1CC[C@H](CCn2cc(CN(C)C)nn2)O[C@H]1CO	i	-1.2	6.1	-0.7	14.8
24	COc1ccccc1NC(=O)N[C@@H]1CC[C@@H](CC(=O)N[C@H](C)c2ccccc2)O[C@H]1CO	i	0.2	4.4	-1.6	-0.6
25	C[C@H](CO)N1C[C@H](C)[C@H](CN(C)C(=O)NC2CCCCC2)Oc2c(NC(=O)C3CCOCC3)cccc2C1=O	i	-1.9	0.0	-4.7	3.6
26	C/C=C/c1ccc2c(c1)O[C@@H](CN(C)C(=O)NC(C)C)[C@@H](C)CN([C@@H](C)CO)S2(=O)=O	i	-0.3	-1.3	0.9	-6.9
27	Cc1ccc(S(=O)(=O)N(C)C[C@@H]2Oc3ncc(C#CCN(C)C)cc3C(=O)N([C@H](C)CO)C[C@@H]2C)cc1	i	-0.4	3.7	-1.4	1.6
28	CO[C@@H]1CN(C)C(=O)c2ccc(NC(=O)C3CCC3)cc2OC[C@H](C)N(C(=O)NC(C)C)C[C@@H]1C	i	-1.8	-0.5	-0.5	5.7
29	O=C(C[C@@H]1C[C@H]2c3cc(NC(=O)C4CCC4)ccc3O[C@H]2[C@@H](CO)O1)NCC1CC1	i	-2.1	4.9	-0.9	4.0
30	Cc1noc(C)c1S(=O)(=O)Nc1ccc2c(c1)C(=O)N([C@H](C)CO)C[C@@H](C)[C@@H](CN(C)C(=O)NC1CCCCC1)OCCCC[C@H](C)O2	i	1.7	-1.6	-4.9	-2.3
31	CN1CCN(c2ccc(CNC(=O)C3Cc4c(-c5ccc6c(c5)OCO6)ccnc4O3)cc2)CC1 (stereo not given)	i	4.2	1.9	7.9	10.5
32	COc1ccc2c3c(n(C)c2c1)[C@@H](CO)N(C(=O)C1CCC1)CC31CN(C)C1	i	-0.8	3.6	2.8	2.3
33	CC(C)CCOc1ccc(/C=C2\CCn3c2nc2cc(C(=O)O)ccc2c3=O)cc1	i	-2.7	2.8	3.8	-5.7
34	CCc1nc2ccc(C(=O)N3CCN(S(=O)(=O)CC)CC3)cn2c1N(C=O)CCC(C)C	i	-2.2	3.3	-10.3	1.5
35	CC(C)CC#Cc1ccc2c(c1)O[C@@H](CN(C)S(=O)(=O)c1ccc(F)cc1)[C@@H](C)CN([C@H](C)CO)S2(=O)=O	i	-3.3	2.4	-0.9	3.4
36	CC(C)Oc1cccc(NC(=O)C2(C)CCCN2C(=O)C(C)C)c1 (stereo not given)	i	0.0	2.4	-0.8	6.4
37	CC(CCl)n1c(=O)c2ccccc2n1S(C)(=O)=O (stereo not given)	i	-4.7	3.8	-1.0	11.4
38	C[C@H](CO)N1C[C@H](C)[C@@H](CN(C)C(=O)Nc2ccc3c(c2)OCO3)Oc2c(NC(=O)c3ccc(-c4nccs4)cc3)cccc2C1=O	i	2.6	1.7	0.6	10.0
39	C=CCOc1ccc2c(c1)CCC1C2CCC2(C)C(O)C(O)CC12 (stereo not given)	i	1.0	-8.5	-3.3	-24.4
40	C[C@@H](NC(=O)C[C@H]1C[C@@H]2c3cc(NC(=O)C4CCC4)ccc3O[C@@H]2[C@@H](CO)O1)c1ccccc1	i	-2.0	-2.5	1.7	-2.3
41	C[C@@H]1CN([C@H](C)CO)S(=O)(=O)c2ccc(C#Cc3ccccn3)cc2O[C@@H]1CN(C)Cc1cccc(F)c1	i	15.9	-12.4	1.2	-15.0
42	C[C@H](CO)N1C[C@H](C)[C@H](CN(C)S(=O)(=O)c2ccc(F)cc2)Oc2ncc(/C=C/c3ccccc3)cc2C1=O	i	2.4	1.3	4.8&9.7	17.2
43	C[C@@H]1CN([C@@H](C)CO)C(=O)c2cccc(NC(=O)Nc3ccc(F)cc3)c2O[C@@H]1CN(C)S(=O)(=O)c1ccc(F)cc1	i	0.2	-1.4	2.3	-13.0
44	Cc1noc(C)c1S(=O)(=O)Nc1ccc2c(c1)CC(=O)N([C@H](C)CO)C[C@H](C)[C@H](CN(C)Cc1ccc(C(=O)O)cc1)O2	i	-1.9	2.4	-4.1	10.4
45	O=[N+]([O-])c1c(O)c(Cl)cc(Cl)c1Cl (tested in a mixture with another compound)	i	-17.1	-56.3	-2.9	-77.7
46	CCCCNC(=O)C[C@@H]1C[C@@]2(C(=O)OCC)CCC=C2N(Cc2ccccc2)C1=O	i	4.2	5.2	-0.6	3.5
47	O=C(c1ccccc1)N1C[C@@H]2[C@H](c3ccccc31)[C@@H](CO)N2Cc1cc(F)ccc1F	i	0.3	-2.7	4.2	-20.5
48	CC(C)NC(=O)Nc1ccc2c(c1)C(=O)N([C@H](C)CO)C[C@@H](C)[C@H](CN(C)S(=O)(=O)c1cccs1)OCCCC[C@@H](C)O2	i	-1.2	0.6	-1.5	-1.0
49	C[C@H](CO)N1C[C@H](C)[C@@H](CN(C)C(=O)C2CCCCC2)OCCCC[C@H](C)Oc2ccc(NS(=O)(=O)c3cccs3)cc2C1=O	i	1.1	-1.5	-9.6	-6.4
50	COc1ccc2c3c([nH]c2c1)[C@@H](CO)N(C(=O)Nc1ccccc1F)CC31CN(C(=O)c2ccccc2F)C1	i	5.8	6.8	1.2	-20.7
51	COCCNC(=O)C[C@H]1C[C@@H]2c3cc(NC(=O)COC)ccc3O[C@@H]2[C@@H](CO)O1	i	1.3	3.8	1.1	-0.3
52	Cc1ccc(S(=O)(=O)Nc2ccc3c(c2)C(=O)N([C@H](C)CO)C[C@H](C)[C@@H](CN(C)CC2CC2)OCCCC[C@H](C)O3)cc1	i	-0.5	-0.9	1.3	8.0
53	COc1ccccc1-c1ccc2c(c1)O[C@H](CN(C)C(C)=O)[C@@H](C)CN([C@H](C)CO)S2(=O)=O	i	-2.3	-0.8	-2.3	-1.7
54	CNC[C@@H]1Oc2cc(C#Cc3ccccc3F)ccc2S(=O)(=O)N([C@H](C)CO)C[C@H]1C	i	9.4	3.6	11.1	4.2
55	C[C@@H]1CCCCO[C@H](CN(C)Cc2ccncc2)[C@H](C)CN([C@@H](C)CO)C(=O)c2cc(NC(=O)Cc3ccccc3)ccc2O1	i	-1.6	-2.5	-1.3	1.4
56	CCC(=O)N1CC2(C1)[C@H](c1ccccc1)[C@H](CO)N2Cc1ccccc1OC	i	-1.3	-3.1	-0.8	0.5
57	O=C(N[C@H]1CC[C@@H](CCn2cc(C3(O)CCCC3)nn2)O[C@H]1CO)C1CCOCC1	i	-0.4	3.8	-0.5	1.4
58	COc1ccc(CN(C)C[C@@H]2Oc3c(NC(=O)c4nc5ccccc5s4)cccc3C(=O)N([C@H](C)CO)C[C@H]2C)cc1	i	0.2	-1.6	10.4	3.4
59	CC(C)NC(=O)N1[C@@H](C#N)[C@@H](c2ccc(C#CC3CCCC3)cc2)[C@@H]1CO	i	1.6	-21.2	-17.6	-65.7
60	O=C(C[C@@H]1C=C[C@H](NC(=O)NC2CCCCC2)[C@H](CO)O1)NCc1ccccc1	i	-3.2	1.8	-0.5	-1.5

# Records 1 through 2 from above:
no.	SMILES	FGF22 binding	rRNA inh HTS RFP	rRNA inh HTS	AF4-AF9 inh	rRNA inh HTS OD600
1	C[C@@H]1CN([C@@H](C)CO)C(=O)c2cc(NS(=O)(=O)c3cccs3)ccc2O[C@@H]1CN(C)Cc1ccc(C(F)(F)F)cc1	i	13.8	-32.2	4.0	-66.0
2	CO[C@H]1CN(C)C(=O)c2cc(NC(C)=O)ccc2OC[C@H](C)N(C(=O)CN2CCOCC2)C[C@@H]1C	i	-0.2	1.5	1.1	-2.2

# Next section.
no.	SMILES	FGF22 binding	rRNA inh HTS RFP	rRNA inh HTS	AF4-AF9 inh	rRNA inh HTS OD600
61	Cc1noc(C)c1NC(=O)N(C)C[C@@H]1Oc2ccc(NS(=O)(=O)c3ccc(F)cc3)cc2CC(=O)N([C@@H](C)CO)C[C@@H]1C	i	0.0	-1.9	-2.0	3.8
62	O=C(CCC1CCCCC1)Nc1cc(Cl)ccc1N1CCOCC1	i	-0.1	-17.5	3.0	-22.7
63	COc1ccccc1N1CCN(Cc2cc(=O)oc3cc(C)ccc23)CC1	i	2.6	9.3	0.9	2.6
64	CO[C@@H]1CN(C)C(=O)c2ccc(NC(=O)C3CCC3)cc2OC[C@H](C)N(CC2CCCCC2)C[C@H]1C	i	6.8&-2.6	1.2&2.7	3.6&2.1	-15.4&-20.4
65	c1ccc(CNn2nnc3ccccc32)cc1	i	-1.8	1.6	-6.8	-2.7
66	CN1CCN(C(=O)c2cc3c(c(-c4cccc(-c5cccc(C(=O)N(C)C)c5)c4)n2)[C@H](CCO)N([S@@](=O)C(C)(C)C)C3)CC1	i	0.0	2.3	-7.1	20.7
67	O=[N+]([O-])c1ccc(C=NNc2ccc(S(=O)(=O)O)cc2)cc1	i	7.5	7.7	2.3	13.8
68	Cc1noc(C)c1NC(=O)Nc1ccc2c(c1)C(=O)N(C)[C@H]1CC[C@@H](CC(=O)N[C@@H]3CCN(Cc4ccccc4)C3)O[C@H]1CO2	i	-2.4	6.7	2.6	4.7

# These rows are one share of the data; count on the stated rates, not on these rows.
